# Assay outcomes from PubChem BioAssay.
# nsP2pro inh – CHIKV nsP2 protease inhibition, primary qHTS. FRET peptide cleavage, nsP2pro, fluorescence 1 h. AID 1964107. Potency, µM (doses to about 24.9 µM), for inactives: at the highest dose activity change, negative = inhibition, hits mostly inhibitors. Q8JUX6. 1.1% of 31,000 active; active means well fitted inhibition curve with a large enough effect; inconclusive means small, poorly fitted or top-dose-only effect; inactive means no such curve, though single readings can be large or run the other way; further: nearly all actives have a fitted effect of over 60% in size; a reference inhibitor and vehicle were the controls
# * = called active by the depositor; i = inactive; ? = inconclusive; [ ] = remark or other dose. On the % scale 0 is the no-effect control and ±100 the full control effect; potency means the concentration at half of the fitted maximal effect.
# The first five compounds as a preview:
SMILES,nsP2pro inh
C=CC(C)(C)C12C=C(O)C(=O)N3/C(=C\c4cnc[nH]4)C(=O)NC31N(OC)c1ccccc12 (configuration not stated),-20%[10 µM]
Cn1ccc2c(C(=O)NCCc3cnc[nH]3)nc(-c3ccc(N4CCOCC4)cc3)cc21,i
NC(=O)CN1C(=O)[C@@H]2CN(C(=O)c3cccs3)CCN2C1=O,5%[39.2 µM]
C=CCc1ccc(O[C@@H]2O[C@H](CO[C@@H]3O[C@@H](C)[C@H](O)[C@@H](O)[C@H]3O)[C@@H](O)[C@H](O)[C@H]2O)cc1,15%[10 µM]
Fc1cccc(-n2ncc3c2ncn2nc(Cc4ccccc4)nc32)c1,5%

# The list itself, previewed entries included:
SMILES,nsP2pro inh
C=CC(C)(C)C12C=C(O)C(=O)N3/C(=C\c4cnc[nH]4)C(=O)NC31N(OC)c1ccccc12 (configuration not stated),-20%[10 µM]
Cn1ccc2c(C(=O)NCCc3cnc[nH]3)nc(-c3ccc(N4CCOCC4)cc3)cc21,i
NC(=O)CN1C(=O)[C@@H]2CN(C(=O)c3cccs3)CCN2C1=O,5%[39.2 µM]
C=CCc1ccc(O[C@@H]2O[C@H](CO[C@@H]3O[C@@H](C)[C@H](O)[C@@H](O)[C@H]3O)[C@@H](O)[C@H](O)[C@H]2O)cc1,15%[10 µM]
Fc1cccc(-n2ncc3c2ncn2nc(Cc4ccccc4)nc32)c1,5%
CN1c2cc(C(N)=O)ccc2C(=O)N2CCCC21 (configuration not stated),2%
CC(C)N1C[C@H](O)C[C@H]1c1nnc2n1CCN(C(=O)c1ccco1)CC2,?
COc1ccc([C@@H](NC(=O)c2coc3ccccc23)C2CC(O)C2)cn1 (some centres not stated),2%
CCCCS(=O)(=O)c1nc(-c2ccc(Br)cc2)cc(-c2ccccc2)c1C#N,-24%
COc1ccc(CCNC(=O)CCCn2c(=O)c3ccccc3n(Cc3ccccc3C#N)c2=O)cc1OC,-20%
COc1ccc(-c2noc(-c3ccc(C)cc3Cl)n2)cc1OC,-22%
O=C(NCc1ccc2c(c1)CCCO2)c1ccc(C2CCNC2)cc1 (configuration not stated),-8%
CCCn1c(=O)sc2cc(NC(=O)c3ccccc3Cl)ccc21,2%
COc1ccc(-c2nc3scc(CCNS(=O)(=O)c4ccc(Oc5ccccc5)cc4)n3n2)cc1OC,-4%
COc1cc(OC)c(NC(=O)N2CCc3c([nH]c4ccccc34)C2c2ccccc2F)cc1Cl (configuration not stated),-1%
CCc1ccc(-c2cc3n(n2)CCCN(C(=O)CCc2cc(Cl)no2)C3)cc1,10%

# Copied from the list.
# nsP2pro inh result of COc1cc(OC)c(NC(=O)N2CCc3c([nH]c4ccccc34)C2c2ccccc2F)cc1Cl (configuration not stated) reads -1%
# nsP2pro inh result of O=C(NCc1ccc2c(c1)CCCO2)c1ccc(C2CCNC2)cc1 (configuration not stated) reads -8%
# nsP2pro inh result of NC(=O)CN1C(=O)[C@@H]2CN(C(=O)c3cccs3)CCN2C1=O reads 5%[39.2 µM]
# nsP2pro inh result of COc1ccc(-c2noc(-c3ccc(C)cc3Cl)n2)cc1OC reads -22%

# Not all compounds are listed; rates above refer to the full screens.
